Screens from PubChem BioAssay.
Beta apoptosis – beta cell apoptosis inhibition | INS-1E cytokine-induced death, ATP luminescence, 48 h; percent of positive-control rescue, neutral wells zero | protection from apoptosis, % (test concentration not listed) | 300,000 tested, 0.8% active | AID 435005;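 active = all replicates at 75% or more, or half of them and the mean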;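 note: 0% = cytokine-treated negative control wells and 100% = positive control rescue; higher means more ATP so stronger rescue from cytokine killing; wells of about 40 µL received 100 nL stock; the first replicate is given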
rRNA inh HTS – selective bacterial rRNA inhibition in E. coli; GFP signal change (wild-type ribosome), % (test concentration not listed); 350,000 tested, 1.6% active; E. coli WT GFP vs humanized-ribosome RFP mutants, fluorescence, 24 h; active compounds read low; DMSO median 0, no signal -100;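 active = significant combined selectivity score with lowered wild-type GFP, culture density cut under 30%, mutant RFP and density less affected; inactive = any of these conditions unmet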; note: one replicate is shown; some compounds called inactive have numbers as strong as hits
UCH37 inh – blocks the human deubiquitinase UCH37; purified proteasome/UCH37, Ub-AMC cleavage fluorescence; inhibition, % (no concentration beside the values); 330,000 tested, 0.33% active; AID 588478;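 active = mean of two replicates above 20%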;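 note: 0% = compound-free wells with enzyme and 100% = wells lacking proteasome; stock transfer was 100 nL into about 20 µL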
Target sequence (Q9Y5K5 whole entry, looked up): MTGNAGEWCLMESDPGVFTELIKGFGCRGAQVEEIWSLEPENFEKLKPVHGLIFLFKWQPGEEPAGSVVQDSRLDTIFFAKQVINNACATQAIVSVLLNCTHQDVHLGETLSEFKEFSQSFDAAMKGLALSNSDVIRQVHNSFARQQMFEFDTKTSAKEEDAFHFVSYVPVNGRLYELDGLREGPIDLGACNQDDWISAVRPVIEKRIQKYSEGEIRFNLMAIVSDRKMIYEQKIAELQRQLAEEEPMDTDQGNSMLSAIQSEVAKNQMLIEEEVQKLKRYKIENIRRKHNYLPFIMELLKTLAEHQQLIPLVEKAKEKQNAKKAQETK
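Test system – human UCH37 enzyme supplied as purified proteasome complex · Incubation – 30 min preincubation with enzyme, 25 min cleavage at room temperature · Detection – AMC fluorescence from Ub-AMC cleavage, excitation 355 nm, emission 460 nm · Benchmarks – no-proteasome wells (full inhibition) and compound-free wells (no inhibition)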
A1 inh – inhibitors of the anti-apoptotic protein A1, read as caspase activation. 330,000 tested, 0.066% active. caspase activation, % (no concentration beside the values). MEF A1-2A-BIM cells, Caspase-Glo 3/7 luminescence, 3 h; percent of clofoctol response, vehicle zero. AID 2462;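 active = over half of replicate activation scores above 10%, or exactly half above 10 with the replicate mean above 10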;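 note: wells of about 30 µL received 50 nL stock; many hits fall short of the cut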
FGF22 binding – shifts melting point of recombinant human FGF22; Q9HCT0; recombinant FGF22 thermal shift, SYPRO orange fluorescence; percent of sucrose octasulfate shift, DMSO zero; calls only at 9.99 µM; 340,000 tested, 1.5% active;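 active = melting point raised past a set limit in the mean and every replicate; three in four hits are not shown here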
T cruzi inh – blocks replication of Trypanosoma cruzi; T. cruzi beta-gal in NIH3T3, luminescence, 90 h; inhibition, % (test concentration not listed); 300,000 tested, 1.4% active; AID 1885;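 active = mean inhibition across valid replicates above about 55%, limit read from the data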;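 note: signal also drops with host cell toxicity which is not excluded here; 0% = plate median of DMSO wells and 100% = zero luminescence signal; higher percent means less beta-gal luminescence so fewer parasites; stock transfer was 50 nL into about 50 µL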
E coli growth – blocks Escherichia coli growth | OD600, 23 h; active compounds read low | OD600 absorbance (test concentration not listed) | 330,000 tested, 0.21% active | AID 1053175;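 active = OD600 absorbance below the run mean of sample wells minus 3.6 SD, in any replicate, cut at about 0.56 in these data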;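 note: stock transfer was 300 nL into about 60 µL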
MLL AF4-AF9 inh – MLL-AF4/AF9 protein interaction inhibition; inhibition, % at 10 µM; AlphaScreen, biotin-AF4 peptide binding to FLAG-AF9; P42568; 350,000 tested, 0.47% active;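 active = every replicate reaching a set inhibition limit, whatever the replicate mean, cut at about 25% in these data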;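 note: 0% = plate neutral control median and 100% = total signal loss; the record names both 10 and 1 µM as test concentration; the first replicate is given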
Target sequence (P42568 whole entry, looked up): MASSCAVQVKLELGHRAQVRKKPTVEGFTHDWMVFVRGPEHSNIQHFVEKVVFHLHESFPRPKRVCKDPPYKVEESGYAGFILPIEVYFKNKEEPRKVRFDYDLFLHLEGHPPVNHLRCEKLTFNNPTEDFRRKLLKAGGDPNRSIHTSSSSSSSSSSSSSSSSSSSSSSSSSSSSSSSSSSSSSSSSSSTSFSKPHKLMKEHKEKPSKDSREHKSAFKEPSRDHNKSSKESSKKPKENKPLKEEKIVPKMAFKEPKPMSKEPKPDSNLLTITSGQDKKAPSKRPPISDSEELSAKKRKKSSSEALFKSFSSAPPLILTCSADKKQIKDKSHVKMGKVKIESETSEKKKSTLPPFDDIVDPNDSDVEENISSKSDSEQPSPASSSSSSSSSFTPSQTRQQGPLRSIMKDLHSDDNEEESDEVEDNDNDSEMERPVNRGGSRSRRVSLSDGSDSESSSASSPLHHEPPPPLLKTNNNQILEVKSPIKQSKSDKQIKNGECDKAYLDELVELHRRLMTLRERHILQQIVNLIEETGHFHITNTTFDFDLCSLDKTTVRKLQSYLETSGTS
rRNA inh HTS OD600 – further read-out of rRNA inh HTS, marked with its call; OD600 change, %; measured here: OD600 growth;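 optical density of the mix in the first replicate; 0 = DMSO median and -100 = no signal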
rRNA inh HTS RFP – recorded beside rRNA inh HTS, whose call it bears; RFP signal change, %; measured here: RFP humanized mutant strains;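 first replicate; 0 = DMSO median and -100 = no signal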
* = called active by the depositor; i = inactive; · = not tested or not shown. Only part of the results is shown; rates above refer to the full screens.

Below each SMILES: Beta apoptosis	rRNA inh HTS	rRNA inh HTS OD600	rRNA inh HTS RFP	UCH37 inh	A1 inh	FGF22 binding	T cruzi inh	E coli growth	MLL AF4-AF9 inh
1) N=c1n(CCCOc2ccc(F)cc2)c2ccccc2n1CC(N)=O
→ -2	10	1	-3.8	0.7	-0.8	i	2	0.66	-10
2) COc1ccc(S(=O)(=O)CCC(=O)Nc2cccc(OC)c2)cc1
→ 3	·	·	·	-1.1	1.7	·	11	0.69	·
3) COc1ccc(OCC(=O)Nc2sc3c(c2C(=O)NCC2CCCO2)CCC3)cc1 (stereo not given)
→ 0	3	2	2.8	4.0	0.8	i	48	0.7	-3.3
4) CCS(=O)(=O)N1CCC(NC(=O)c2ccco2)CC1
→ -5	·	·	·	4.8	1.0	·	-3	0.69	·
5) COc1ccc(Cl)c2c1[nH]c1nc(SCc3cccnc3)nnc12
→ 1	12	-8	1.0	·	0.7	i	-3	·	-0.6
6) Cc1ccc(S(=O)(=O)Nc2ncnc3ccccc23)cc1
→ -1	6	7	1.2	-2.9	-1.2	i	3	0.66	-25
7) C#Cc1cccc(C(=O)N2CCCC(Nc3cccc(F)c3)C2)c1 (stereo not given)
→ 0	-33*	-20*	0.0*	0.3	-0.5	i	-10	0.72	0.8
8) COC(=O)c1cc(C(=O)Nn2cnnc2)cc([N+](=O)[O-])c1
→ -3	15	10	-2.2	4.3	0.5	i	-5	0.7	-11
9) C[C@]12CC[C@H](O)CC1=CCC1C2CC[C@@]2(C)C1CCC21OCCO1 (stereo not given in full)
→ -6	3	1	1.5	-1.9	0.0	i	·	0.66	8.8
10) CCCC(=O)O[C@@H]1C[C@@H](C)N(C(=O)c2ccccc2)c2ccc(C)cc21
→ 2	·	·	·	3.0	-0.1	·	-7	0.75	·
11) COc1ccc(OC)c(/C=C/C(=O)c2ccc3c(c2)OCCO3)c1
→ -15	-25*	-19*	-2.4*	-4.5	0.9	i	-12	0.68	7.5
12) O=C(O)c1cccc(N2CCCC2)c1
→ -5	·	·	·	-51	1.1	·	-7	0.71	·
13) O=C(O)C1C2CC3OC(=O)C1C3C2 (stereo not given)
→ ·	21	20	-0.8	1.4	·	i	·	0.68	2.5
14) O=S(=O)(NC1c2cccc3cccc(c23)C1Sc1ncccn1)c1ccc(Cl)cc1 (stereo not given)
→ 27	-16	-20	0.0	5.6	-0.5	i	31	0.75	5.4
15) O=C(CCNC(=O)c1ccc(Br)cc1)Nc1ccccc1N1CCCCC1
→ 7	-30	-65	3.8	1.8	-0.7	i	-6	0.62	-18
16) CC(C)c1ccc(-c2nnn(CCC(=O)O)n2)cc1
→ 2	·	·	·	16	-2.5	·	-11	0.65	·
17) CCOc1ccc(S(=O)(=O)N(CC(=O)O)c2ccc(C)cc2)cc1
→ -7	-13	-2	0.0	-3.6	0.5	i	-1	0.71	5.8
18) O=C(Cc1c(C(=O)O)[nH]c2ccccc12)NCCN1CCN(c2cccc(Cl)c2)CC1
→ -5	·	·	·	2.3	1.6	·	-2	0.68	·
19) C/C(Cn1nnc([N+](=O)[O-])n1)=N\NC(=O)c1ccc(Cl)c(Cl)c1
→ 21	-21	-19	-9.6	·	0.5	i	66*	·	0.8
20) CCCCN(C(=O)c1cccc(S(=O)(=O)N(CC)c2ccccc2)c1)c1c(N)n(CC(C)C)c(=O)[nH]c1=O
→ ·	8	13	-0.8	2.6	·	i	·	0.71	2.0
21) CCCN(CC(=O)Nc1ccccc1OC)C(=O)c1cc(-c2ccccc2)nn1-c1ccccc1
→ -1	-7	-2	4.3	6.0	-0.5	i	·	0.72	0.5
22) COc1ccc(-c2nc3c(c(SCC(=O)Nc4cccc(O)c4)n2)Cc2c(CO)cnc(C)c2O3)cc1
→ 9	5	7	4.0	4.0	0.6	i	-8	0.73	-0.3
23) CN(C)c1ccc(NC(=O)CSc2n[nH]c(-c3ccco3)n2)cc1
→ 1	-12	0	0.0	2.0	0.0	i	27	0.71	-1.3
24) CCc1ccc(N2CCN(C(=O)N3CCOCC3)CC2)cc1
→ 4	8	5	1.5	0.5	0.3	i	-6	0.71	3.5
25) Cc1c(C(=O)NC2CCCCC2)oc2c1C(=O)CC(C)(C)C2
→ -6	·	·	·	2.2	1.5	·	18	0.67	·
26) CC(Sc1ccc(S(=O)(=O)N2CCN(C)CC2)cn1)C(=O)NC1(C#N)CCCCC1 (stereo not given)
→ ·	5	1	0.9	4.3	·	i	·	0.7	0.4
27) CC(=O)N1CCN(S(=O)(=O)c2ccc(C)cc2)C1C (stereo not given)
→ ·	5	8	-1.6	1.8	0.0	·	4	0.65	-1.3
28) Cc1ccc(-c2nn(-c3ccccc3)cc2C(=O)Nc2ccc(C)c(S(=O)(=O)N3CCOCC3)c2)cc1
→ 7	·	·	·	-1.6	1.4	·	73*	0.71	·
29) CC(C)OC(=O)/C(=C\c1ccccc1)NC(=O)c1ccccc1
→ -2	3	-4	0.3	-1.8	0.9	·	-1	0.69	0.5
30) CSc1cccc(N2CC(C(=O)Nc3cccc(S(=O)(=O)N4CCCC4)c3)CC2=O)c1 (stereo not given)
→ -1	-22	-22	-2.4	4.2	2.3	i	-16	0.72	0.2

The final 2 compounds of the part before are carried over, then new ones follow:
Below each SMILES: Beta apoptosis	rRNA inh HTS	rRNA inh HTS OD600	rRNA inh HTS RFP	UCH37 inh	A1 inh	FGF22 binding	T cruzi inh	E coli growth	MLL AF4-AF9 inh
29) CC(C)OC(=O)/C(=C\c1ccccc1)NC(=O)c1ccccc1
→ -2	3	-4	0.3	-1.8	0.9	·	-1	0.69	0.5
30) CSc1cccc(N2CC(C(=O)Nc3cccc(S(=O)(=O)N4CCCC4)c3)CC2=O)c1 (stereo not given)
→ -1	-22	-22	-2.4	4.2	2.3	i	-16	0.72	0.2
31) CCCCC1(O)CC(C(F)(F)F)=NN1C(=O)COc1ccccc1 (stereo not given)
→ -2	3	7	-4.2	3.0	-0.2	i	-7	0.65	2.8
32) COc1ccc(-n2c(CNC(=O)c3ccc(S(=O)(=O)N4CCCC4)cc3)n[nH]c2=S)cc1
→ -5	·	·	·	1.2	0.5	·	-1	0.63	·
33) CC(=O)Nc1ccc(NC(=O)C2CCCN2C(=O)NCc2ccccc2)cc1 (stereo not given)
→ -1	9	9	-0.8	1.5	1.0	i	-6	0.67	-3.2
34) Cc1cccc(CSCc2ccc(C(=O)NC(C)C)o2)c1
→ ·	2	1	3.1	2.4	0.7	i	-2	0.7	0.0
35) Cc1cc(C(C)(C)C)cc(C)c1N
→ -2	·	·	·	3.6	-0.9	·	-5	0.67	·
36) CCOCCCNC(=O)C(c1ccc(OC)cc1)N(Cc1cccs1)C(=O)CNC(C)=O (stereo not given)
→ 0	-4	1	-2.9	0.4	-0.1	i	-8	0.73	0.8
37) CSC(=NS(=O)(=O)c1ccc(C)cc1)SC
→ -9	·	·	·	3.1	-0.1	·	8	0.66	·
38) COC(=O)c1c(NC(=O)Cn2nc(C(F)F)cc2C(F)F)sc(C)c1C
→ 9	·	·	·	0.1	1.0	·	19	0.76	·
39) Cc1cccc(C(=O)NCC(=O)NNC(=O)c2ccccc2O)c1
→ -5	2	6	-0.2	-12	0.3	i	-2	0.72	-2.5
40) CC(=O)CSc1nc2ccccc2o1
→ -6	·	·	·	5.0	-0.4	·	-4	0.66	·
41) CC(C(=O)Nc1ccc(S(=O)(=O)N2CCCCC2)cc1)N1CCN(c2ccccn2)CC1 (stereo not given)
→ -4	·	·	·	1.2	0.5	·	1	0.65	·
42) Clc1ccc(-n2cc(COCc3ccccc3)nn2)cc1
→ ·	-6	-2	-18	4.6	-0.2	i	1	0.68	-5.0
43) O=Cc1c(N2CCN(c3cccc(Cl)c3)CC2)nc2ccccn2c1=O
→ 2	·	·	·	0.5	0.0	·	15	0.76	·
44) CN1CCN(C(=O)c2cccn(Cc3c(Cl)cccc3Cl)c2=O)CC1
→ -1	8	6	1.8	1.7	0.8	i	-5	0.66	2.4
45) Cc1cc(C)n(CCC(=O)N/N=C/c2ccccc2O)n1
→ -1	-8	10	1.9	·	-0.6	i	-18	·	14
46) O=C1CC(=O)Nc2cc(S(=O)(=O)NCc3cccs3)ccc2N1
→ -6	9	8	-0.6	5.1	-1.3	i	-24	0.66	-1.0
47) O=S(=O)(NC1CCCCCC1)c1cccc2cccnc12
→ -17	·	·	·	1.0	0.7	·	5	0.67	·
48) CCOc1ccc(NC(=O)CCCNC(=O)Cn2cnc3sc(C)c(C)c3c2=O)cc1
→ ·	5	3	-1.1	1.8	0.7	i	-5	0.63	-5.7
49) O=C(CCC1CCCCC1)Nc1cccnc1
→ -4	·	·	·	2.0	-0.1	·	8	0.73	·
50) O=C(CNC(=O)c1ccc(OC(F)F)cc1)NCC1(N2CCOCC2)CCCCC1
→ 0	6	6	-1.9	1.4	2.4	i	·	0.7	0.5
51) CNC(=O)N(O)C1N(/N=C/c2cccnc2)C(=S)SC1(C)C (stereo not given)
→ -2	19	11	0.7	·	-0.7	i	5	·	-2.9
52) Cc1cc(-c2ccc(C(C)C)c(S(=O)(=O)N3CCN(c4ccccc4)CC3)c2)on1
→ 6	-6	0	-3.2	·	1.8	i	31	·	-1.0
53) O=C1CSC(c2cccc([N+](=O)[O-])c2)N1c1ccccc1 (stereo not given)
→ -17	17	8	0.4	2.5	-1.2	i	-12	0.71	1.8
54) Nc1nc(-c2ccccc2)nn1C(=O)Cc1ccccc1
→ -8	·	·	·	3.3	-1.8	·	-1	0.7	·
55) Cn1c(SCC(=O)NC2CCCCCC2)nnc1-c1cccs1
→ -3	·	·	·	2.8	-1.3	·	12	0.73	·
56) COC(=O)C(NC(=O)c1ccc(F)cc1)(Nc1ncc(S(=O)(=O)c2ccc([N+](=O)[O-])cc2)s1)C(F)(F)F (stereo not given)
→ 20	·	·	·	1.5	0.3	·	12	0.66	·
57) COc1ccc(N2CCN(C(=S)Nc3cc(C)cc(C)c3)CC2)cc1
→ -4	·	·	·	1.0	-0.6	·	4	0.73	·
58) CC1CCc2cc(F)cc3c(O)c(C(=O)NCC4CCCO4)c(=O)n1c23 (stereo not given)
→ -1	·	·	·	-10	-0.5	·	6	0.69	·
